AID923: qHTS Assay for Allosteric/Competitive Inhibitors of Caspase-1: Spectroscopic Profiling in AFC Spectral Region; compound fluorescence, AFC spectral region (405/520 nm); almost no hit is shown here; Potency, µM (series often up to 57.5 µM), for inactives: at the top dose fluorescence increase, actives largely listed as activators; actives 1.1% (n = 75,000); AID 923, 2007; active means well fitted activation curve with a large enough effect; inconclusive means small, poorly fitted or top-dose-only effect;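 further: potency means the concentration at half of the fitted maximal effect; 0% is about no effect; scaled to a free AFC standard on each plate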
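Titrations up to 57 uM read every 20 sec for 3 min (405/520 nm) with 50 nM caspase 1 and 5 uM Ac-WEHD-AFC, pH 7.5 HEPES buffer. Fluorescence-vs-time intercept gave baseline, scaled against on-plate AFC standard.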
Resorufin fluor: compounds fluorescent in resorufin spectral region. Compound fluorescence, resorufin region 547/598 nm, buffer; hits give high values. max dye-equivalent concentration, M. actives 0.04% (n = 59,000). AID 588; active = above 10 nM dye equivalent; inconclusive = 1 to 10 nM; inactive = 1 nM or less; a few of its hits are not listed in these tables; further: highest value over a series up to 38 µM
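Dye-equivalent concentration values derive from comparing each well's 547/598 nm fluorescence against resorufin standards included on every plate. Incubation was 15 min at room temperature in 100 mM Tris, pH 8.0.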
A488 fluor: A488 region autofluorescence | compound autofluorescence, A488 spectral region, dye equivalency; hits give high values | max dye equivalency, M | actives 0.1% (n = 59,000); active = above 10 nM dye equivalent; inconclusive = 1 to 10 nM; inactive = 1 nM or less; about half of its hits are not listed in these tables;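 further: highest value over a series up to 38 µM; compound alone in buffer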
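Read-out: relative fluorescence at 480/540 nm, expressed as Alexa 488 dye-equivalent concentration from a six-point A488 standard included per plate. Conditions: 100 mM Tris, pH 8.0; 15 min incubation, room temperature.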
A647 autofl: compound fluoresces in the A647 spectral region. Compound fluorescence, A647 channel (570/671 nm), Tris buffer. max dye-equivalent concentration, M. 59,000 tested, under 10 active. AID 592; active means above 1 µM dye equivalent; inconclusive means 0.1 to 1 µM; inactive means 0.1 µM or less;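 further: values scaled relative to a standard on each plate; highest value over a series up to 38 µM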
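Compound fluorescence was measured in 100 mM Tris buffer, pH 8.0, after 15 min at room temperature, using 570 nm excitation and 671 nm emission filters. Signal was normalized to a per-plate Alexa 647 standard curve and expressed as dye-equivalent concentration at each compound concentration.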
TSHR agonist: TSH receptor (human) agonism | AID 926 | Potency, µM (top dose mostly 57.1 µM), inactives show top-dose activation, hits mostly activators | P16473 | actives 0.48% (n = 73,000) | HEK293-CNG-TSHR cells (CNG channel as cAMP sensor), membrane potential dye, cAMP; active = well fitted activation curve of enough size with the parental cells flat; inconclusive = any curve in the parental cells; inactive = parental cells flat and receptor cells flat or falling; further: potency means the concentration at half of the fitted maximal effect; % of control where 0% means no effect; weak receptor curves with flat parental cells got no call and are not listed
Target sequence (P16473 whole entry, looked up): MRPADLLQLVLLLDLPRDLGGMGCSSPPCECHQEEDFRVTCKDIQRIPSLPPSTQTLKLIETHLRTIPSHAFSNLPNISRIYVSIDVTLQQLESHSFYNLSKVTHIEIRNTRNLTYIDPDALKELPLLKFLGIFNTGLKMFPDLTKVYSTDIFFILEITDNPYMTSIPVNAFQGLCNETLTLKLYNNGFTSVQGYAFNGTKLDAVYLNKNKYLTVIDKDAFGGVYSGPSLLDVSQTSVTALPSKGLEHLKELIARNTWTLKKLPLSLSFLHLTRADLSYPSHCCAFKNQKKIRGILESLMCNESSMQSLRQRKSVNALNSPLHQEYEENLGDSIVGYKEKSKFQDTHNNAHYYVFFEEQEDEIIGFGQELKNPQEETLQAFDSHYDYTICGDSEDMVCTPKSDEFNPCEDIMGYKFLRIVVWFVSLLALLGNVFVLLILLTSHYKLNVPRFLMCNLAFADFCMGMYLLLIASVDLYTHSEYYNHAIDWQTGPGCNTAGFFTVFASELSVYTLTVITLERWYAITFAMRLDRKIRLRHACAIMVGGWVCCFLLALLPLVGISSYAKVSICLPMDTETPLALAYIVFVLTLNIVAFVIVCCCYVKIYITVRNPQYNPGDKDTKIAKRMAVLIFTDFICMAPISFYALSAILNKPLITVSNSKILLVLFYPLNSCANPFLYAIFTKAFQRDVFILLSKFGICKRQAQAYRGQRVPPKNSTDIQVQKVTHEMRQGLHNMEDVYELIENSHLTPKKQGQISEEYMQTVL
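cAMP rise detected as CNG-channel membrane depolarization by fluorescent dye (emission 590 nm), 30 min after compound, following 60 min dye loading containing 100 uM RO 20-1724 at room temperature. Cells: TSHR/CNG HEK 293, with parental CNG HEK 293 as control.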
Starred values were filed as active, the others as inactive; i = inactive; ? = inconclusive; . = no result given; & = joins results of further samples; [ ] = another dose, or the depositor's remark. These rows are one share of the data; the hit share may differ from the screen's.

Molecule	A488 fluor	AID923	TSHR agonist	Resorufin fluor	A647 autofl
Cc1nc2ccc(NC(=O)Nc3ccnc4cccnc34)cc2o1	.	-2.3%	-9.5%	.	.
CCCC(c1nnnn1Cc1ccc(OC)cc1)N1CCC(C(N)=O)CC1 (configuration not stated)	i	-1.1%	-4.0%	i	5.6e-09
CCn1c(SCC(=O)N2CCOCC2)nc2oc3c(Cl)cc(Cl)cc3c(=O)c2c1=O	i	0.3%	?	i	9.2e-09
COc1ccc(-c2cn3c(C)c(C(=O)NC(C)C)sc3n2)cc1	i	1.0%	6.1%	i	1.04e-08
O=S(=O)(O)c1cc(O)c2c(N=Cc3ccccc3O)cc(S(=O)(=O)O)cc2c1	i	2.2%[11.5 µM]	-1.3%[11.4 µM]	i	4.3e-09
O=C1CC2(CCCC2)CC(=O)N1CCCCN1CCN(c2ncccn2)CC1	i	-1.1%	12.0%	i	3.24e-08&3.8e-09
COc1ccccc1CNc1ncncc1-c1ccc2c(c1)OCO2	i	0.0%	?	i	9.8e-09
CCCN(CCC)S(=O)(=O)c1ccc(C(=O)Nc2nnc(-c3cccc(OC)c3)o2)cc1	i	1.4%	19.2%	i	1e-09
O=C(O)[C@@H](O)[C@@H](O)[C@H](O)C(=O)CO	i	6.0%[11.5 µM]	?	i	2.6e-09
Cc1ccc(NC(=O)C2CCCN(S(=O)(=O)c3c(C)noc3C)C2)c(C)c1 (configuration not stated)	i	0.5%	?	i	5.9e-09
Cc1ccc2cc(CCNC(=O)C3CCCC3)c(=O)[nH]c2c1	.	-1.6%	-7.9%	.	.
CCN(CC)S(=O)(=O)N1CCC(C(=O)NCc2ccc(C)cc2)CC1	i	0.2%	?	i	1e-09
O=C1CCC(C(=O)NC2(C(=O)NC3CCCCC3)CCCCC2)N1 (configuration not stated)	i	2.0%	1.8%	i	1.84e-08
O=C(COc1ncnc2ccccc12)N1CCOCC1	i	-0.1%	-0.3%	i	1.6e-09
Cc1nc2nc(C)c(CCC(=O)NCc3ccc4c(c3)OCO4)c(C)n2n1	i	-1.3%	.	i	4e-09
Cc1nn(-c2ccccc2)c2sc(C(=O)N(Cc3ccco3)C(C)C(=O)NC(C)(C)C)cc12 (configuration not stated)	i	1.7%	.	i	1e-09
O=C(NCCC1=CCCCC1)C1CCCN(c2nc3ccccc3o2)C1 (configuration not stated)	i	0.7%	?	i	2.35e-08
CCCCS(=O)(=O)NC1=NCN(C2CCN(Cc3ccccc3)CC2)CN1	i	0.9%	-0.1%	i	4.54e-08
COc1cccc(NC(=O)c2cc(C(=O)Nc3cccc(OC)c3)n(C)n2)c1	i	.	.	i	2.56e-08
O=S(=O)(Cc1ccccc1Cl)N1CCCCC1	i	-0.7%	13.7%[11.4 µM]	i	1e-09
CCCP(=O)(CC(=O)N(CC)CC)c1ccccc1 (configuration not stated)	.	1.0%	7.1%	.	.
COc1ccc(C2CC(=O)C(C=NCCN3CCNCC3)=C(O)C2)cc1OC (configuration not stated)	.	-0.6%	-4.4%[11.4 µM]	.	.
COc1ccc2c(c1)CCC1C2CC[C@]2(C)[C@H](NCCCCCCN3C(=O)C=CC3=O)CC[C@@H]12 (some centres not stated)	i	-2.7%	9.4%	i	1e-09
C=CCOc1ccc(/C(O)=C2/C(=O)C(=O)N(CCCN3CCOCC3)C2c2ccccc2)cc1 (configuration not stated)	i	.	.	i	1.98e-08
Cc1ccsc1C1NC(=O)c2c(sc3c2CCCC3)N1 (configuration not stated)	i	.	.	i	6.31e-08
C[C@@H]1C(=O)NC2=Nc3cccc(Cl)c3CN21	i	-1.3%	.	i	4.56e-08
c1ccc(CCNCc2ccco2)nc1	i	2.2%[11.5 µM]	0.4%[11.4 µM]	i	1.9e-09
CCn1c2ccccc2c2nnc(SCC(=O)NC(C(=O)OC)C(C)C)nc21 (configuration not stated)	i	0.7%	7.3%	i	2.7e-09
O=C1CC(c2ccc(Cl)cc2)CC(O)=C1C=NCCN1CCNCC1 (configuration not stated)	.	0.2%	-3.3%	.	.
COC(=O)c1ccccc1NC(=O)c1cccs1	i	0.0%	?	i	1.13e-08
CC1(C)N=C(c2ccc(Cl)cc2)C(=O)N1	i	0.3%	-6.2%	i	4.7e-09
COc1cccc(/C(O)=C2/C(=O)C(=O)N(CCN3CCOCC3)C2c2cccs2)c1 (configuration not stated)	i	1.1%	?	i	1e-09
Cc1nn(CC(=O)NCc2cccnc2)c(=O)c2ccccc12	i	1.0%	?	i	4.4e-09
COc1c(O)cc2oc3cc(O)c(CC=C(C)C)c(O)c3c(=O)c2c1CC=C(C)C	i	-2.8%&1.9%&0.8%	0.2%	i	1.73e-08
COc1cc(S(=O)(=O)N2CCN(c3ccccc3F)CC2)ccc1Cl	i	-0.8%	0.8%	i	2.28e-08
CN1CCc2[nH]nc(-c3n[nH]c4c3CN(C)CC4)c2C1	i	3.5%[11.5 µM]	-1.2%[11.4 µM]	i	1e-09
CCCn1c(-c2ccc(F)cc2)nc2c(N(C)CCN(C)C)nc(C)nc21	.	7.6%	?	.	.
CC(C)n1c(NCc2c[nH]c3ccccc23)nc2ccccc21	i	-0.1%	0.5%	i	1e-09
COc1cc(-c2nc(S(=O)(=O)c3ccccc3)c(N3CCOCC3)o2)cc(OC)c1OC	i	0.2%	9.1%	i	1e-09
O=C(O)CSc1nnc(C2COc3ccccc3O2)n1-c1ccccc1 (configuration not stated)	.	-1.9%	16.3%	.	.
CCn1c(=O)cc(OCC(=O)O)c2ccccc21	i	1.0%	5.8%	i	1e-09
CC1S/C(=C(\C#N)C(=O)NCc2ccco2)N(c2ccc(F)cc2)C1=O (configuration not stated)	i	1.0%	-12.3%	i	5.9e-09
Cc1cc(NC(=O)Cc2c(F)cccc2Cl)no1	i	-1.3%	2.9%	i	3.1e-09
O=C(CN1CCN(c2ccccn2)CC1)Nc1ccc(Oc2ccccc2)cc1	i	-0.3%	?	i	4.01e-08
COc1ccc(NC(=O)C2CC(=O)OC2(C)C)cc1 (configuration not stated)	i	-0.1%	0.5%	i	1e-09
COc1ccccc1N(CC(=O)NCCSC(C)(C)C)S(C)(=O)=O	.	6.7%	8.7%[11.4 µM]	.	.
Cc1nnc2n(CCc3ccccc3)c(=O)c3c4c(sc3n12)CCCC4	i	-1.6%	4.8%	i	1e-09
CSc1cccc(NC(=O)CN(C)S(=O)(=O)c2ccccc2)c1	i	-3.7%	-2.0%	i	6.5e-09
O=C(CN1C(=O)c2ccccc2C1=O)[C@@H](O)CN1C(=O)c2ccccc2C1=O	i	-3.4%[11.5 µM]	3.6%[11.4 µM]	i	1e-09
COc1ccc(Cc2nnc(NC(=O)c3c(-c4ccccc4)noc3C)s2)cc1OC	.	0.2%	29.6%	.	.

Further records
Molecule	A488 fluor	AID923	TSHR agonist	Resorufin fluor	A647 autofl
CCOC(=O)C(NC(C)=O)(OCc1ccc(F)cc1)C(F)(F)F (configuration not stated)	i	0.5%	1.9%	i	1.39e-08
Cc1c(C#N)c(SCC(N)=O)nc2c1CCCC2	i	-1.1%	9.1%	i	5.7e-09
Cc1ccc(S(=O)(=O)NCCC(=O)NC2CCCC2)cc1	i	0.7%	3.9%	i	3.19e-08
COc1ccc2occ(NC(C)=O)c2c1	i	2.9%	?	i	1.83e-08
CCOc1ccc(N(CC(=O)NCc2ccc(F)cc2)S(=O)(=O)c2c(C)noc2C)cc1	.	-2.7%	13.0%	.	.
CCN1CCN(c2nc(C)nc3c2sc(=S)n3C)CC1	.	-2.5%	?	.	.
CCN1CCN(C(=O)CSCc2nc(-c3ccc(OC)c(OC)c3)oc2C)CC1	.	-1.4%	-2.2%	.	.
CC(C)(C)NC(=O)CN(C(=O)C1(C)CC(=O)N=C2C=CC=CN21)C1CCCC1 (configuration not stated)	i	-0.2%	-4.0%	i	5.1e-09
CC(C)C1O/C(=N/C(=O)Nc2ccc(Cl)c(Cl)c2)NC1=O (configuration not stated)	i	-0.4%	4.6%	i	1e-09
O=C(COC(=O)C1CCCO1)Nc1cccc(C(F)(F)F)c1 (configuration not stated)	i	1.1%	-2.6%	i	3.03e-08
CC(=O)NCCc1ccc(S(=O)(=O)N(C)C2CCS(=O)(=O)C2)cc1 (configuration not stated)	i	-0.9%	4.6%	i	1e-09
COCCNC(=O)C1CCN(S(=O)(=O)N2CCC3(CC2)OCCO3)CC1	i	-0.5%	4.4%	i	1e-09
CCc1ccccc1-n1c(SCC(=O)Nc2ccc3c(c2)OCCO3)nc2[nH]ncc2c1=O	i	-0.6%	2.9%	i	1.8e-09
CCCC(=O)N(c1ccc(OCC)cc1)C1C=CS(=O)(=O)C1 (configuration not stated)	i	1.4%	?	i	1e-09
CCN(CC(=O)NCc1ccc(F)cc1)Cc1nc2ccccc2c(=O)[nH]1	i	0.5%	1.0%	i	1e-09
O=c1[nH]c(SCc2c(Cl)c(Cl)c(Cl)c(Cl)c2Cl)nc(=S)[nH]1	i	-6.2%[11.5 µM]	0.7%[11.4 µM]	i	1e-09
O=C(c1ccccc1)N(Cc1ccc(F)cc1)C1CCS(=O)(=O)C1 (configuration not stated)	i	0.7%	1.6%	i	1.4e-09
CCCc1cc(=O)n2[nH]c(-c3ccc(C)cc3)cc2n1	i	-1.1%	?	i	1e-09
CCOCCn1c(CN2CCN(c3ccc(F)cc3)CC2)nc2c1c(=O)n(C)c(=O)n2C	i	0.3%	2.7%	i	1.93e-08
COc1ccc(NC(=O)CSc2nnc(Cc3cccn3C)n2-c2ccc(OC)cc2)cc1	.	-0.8%	-2.1%	.	.
CC1CCN(S(=O)(=O)c2ccc(Cl)cc2)CC1	.	1.2%	11.1%	.	.
OCCn1c(SCCOc2ccccc2F)nc2ccccc21	.	-0.6%	-0.4%[11.4 µM]	.	.
O=C1c2oc3ccccc3c(=O)c2C(c2ccc(Cl)cc2)N1c1ncccn1 (configuration not stated)	i	0.1%	-18.2%	i	1e-09
c1csc(C2C3=C(Nc4ncnn42)c2ccccc2OC3)c1 (configuration not stated)	i	20.2%	-5.5%	i	1e-09
O=S1(=O)CCC(SCc2nc3sccn3c2Br)C1 (configuration not stated)	i	1.2%	9.4%	i	3.5e-09
CCOC(=O)c1oc2ccc(S(=O)(=O)N3CCC(C)CC3)cc2c1C	i	-3.1%	?	i	1e-09
Cc1cc(C)nc(-n2nc(C)cc2NC(=O)c2cc(=O)c3ccccc3o2)n1	i	0.0%	0.3%	i	1.04e-08
CCCN1C2CCCC1CC(NC(=O)c1ccccc1F)C2 (configuration not stated)	i	0.1%	4.0%	i	1e-09

Profiles, quoted from the list:
CCOC(=O)c1oc2ccc(S(=O)(=O)N3CCC(C)CC3)cc2c1C as listed: A488 fluor = i; AID923 = -3.1%; TSHR agonist = ?; Resorufin fluor = i; A647 autofl = 1e-09
OCCn1c(SCCOc2ccccc2F)nc2ccccc21 as listed: A488 fluor = .; AID923 = -0.6%; TSHR agonist = -0.4%[11.4 µM]; Resorufin fluor = .; A647 autofl = .
Cc1cc(C)nc(-n2nc(C)cc2NC(=O)c2cc(=O)c3ccccc3o2)n1 as listed: A488 fluor = i; AID923 = 0.0%; TSHR agonist = 0.3%; Resorufin fluor = i; A647 autofl = 1.04e-08

Compound activity deposited in PubChem by National Center for Advancing Translational Sciences (NCATS).
